EPAC1 agonist = human EPAC1 agonism, validation. O95398. hit rate 1% among 16,000. Potency, µM, for the others: max response, positive = active, actives largely listed as activators. EPAC1 Rap1b BODIPY-GDP exchange, fluorescence; active = well fitted activation curve with a large enough effect; inconclusive = small, poorly fitted or top-dose-only effect; inactive = no such curve, though single readings can be large or run the other way;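 also: nearly all actives have a fitted effect of over 70% in size; series mostly up to about 76 or 150 µM; scaled to a cAMP control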
Target sequence (O95398 whole entry, looked up): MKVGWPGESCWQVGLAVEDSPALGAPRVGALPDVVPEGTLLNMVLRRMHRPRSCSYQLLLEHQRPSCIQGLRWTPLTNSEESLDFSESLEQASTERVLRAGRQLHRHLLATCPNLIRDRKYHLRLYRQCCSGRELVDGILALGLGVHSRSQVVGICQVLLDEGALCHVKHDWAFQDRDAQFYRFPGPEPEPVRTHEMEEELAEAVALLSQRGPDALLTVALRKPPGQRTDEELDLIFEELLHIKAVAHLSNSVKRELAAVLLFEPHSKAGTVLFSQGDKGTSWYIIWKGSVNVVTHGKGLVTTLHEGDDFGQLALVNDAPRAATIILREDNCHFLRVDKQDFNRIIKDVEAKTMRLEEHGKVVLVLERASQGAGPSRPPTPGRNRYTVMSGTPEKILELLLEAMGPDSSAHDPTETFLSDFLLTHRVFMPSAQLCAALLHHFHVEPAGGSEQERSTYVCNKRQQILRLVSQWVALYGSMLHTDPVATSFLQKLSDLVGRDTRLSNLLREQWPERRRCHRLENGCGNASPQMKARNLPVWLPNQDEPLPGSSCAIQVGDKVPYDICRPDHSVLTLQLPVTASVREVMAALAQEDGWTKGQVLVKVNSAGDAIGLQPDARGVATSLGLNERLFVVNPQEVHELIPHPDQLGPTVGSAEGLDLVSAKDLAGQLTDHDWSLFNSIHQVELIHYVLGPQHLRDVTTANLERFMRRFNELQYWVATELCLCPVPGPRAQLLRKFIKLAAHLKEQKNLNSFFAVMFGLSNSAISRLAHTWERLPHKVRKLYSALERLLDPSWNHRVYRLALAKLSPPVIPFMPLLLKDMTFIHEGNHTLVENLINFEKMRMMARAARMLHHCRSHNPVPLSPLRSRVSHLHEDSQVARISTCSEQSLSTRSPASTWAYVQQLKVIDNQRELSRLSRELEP
Starred values were filed as active, the others as inactive; u = inconclusive; & = joins results of further samples; [ ] = dose if it differs, or a comment. % is scaled to controls: 0 for no effect and ±100 for the full control effect; potency is read from the fitted curve at half-maximal effect.

SMILES	EPAC1 agonist
C=C1C2C[C@]3(C4CC5[C@@]6(C)CC[C@H](O)[C@@]5(C3CC2=O)C4[N+]([O-])(CC)C6)[C@@H]1O (stereo partly drawn)	-1%
CCc1cc2c(s1)-n1c(C)nnc1CN=C2c1ccccc1Cl	20%
C[C@@H]1CC[C@H]2[C@@H](C)C(=O)O[C@@H]3O[C@@]4(C)CC[C@@H]1[C@]32OO4	-27%
C=C[C@H]1CN2CCC1C[C@@H]2C(O)c1ccnc2ccccc12 (stereo partly drawn)	2%
CC1=CC(=O)C2=C(C)C[C@H](O)[C@H]3[C@H](C)C(=O)O[C@@H]3C12 (stereo partly drawn)	-9%
O=C1CC[C@@]2(O)[C@H]3Cc4ccc(O)c5c4[C@@]2(CCN3CC2CC2)[C@H]1O5	0%
CC[n+]1c(-c2ccccc2)c2cc(N)ccc2c2ccc(N)cc21	26%&1%
CN(C(=O)Cc1ccc(Cl)c(Cl)c1)[C@@H](CN1CCCC1)c1cccc(OCC(=O)O)c1	10%
Oc1ccc(Cl)cc1	u
C=CCN1CC[C@]23c4c5ccc(O)c4OC2C(=O)CC[C@]3(O)C1C5 (stereo partly drawn)	-17%
CCCN1CCO[C@@H]2c3cc(O)ccc3OC[C@@H]21	5%
CCc1cccc(CC)c1N(COC)C(=O)CCl	u
COc1ccc(/C=C/c2cc(O)cc(O)c2)cc1	5%
O=C(O)CCC1NCC2CC1CN1CCCCC21 (stereo not drawn)	-5%
C=CCC1=C(C)C(OC(=O)C2C(C=C(C)C)C2(C)C)CC1=O (stereo not drawn)	-104%[inhibitor]
C[C@@H]1O[C@@H](O[C@@H]2C=C3CC[C@@H]4[C@H](CC[C@]5(C)[C@@H](c6ccc(=O)oc6)CC[C@]45O)[C@@]3(C)CC2)[C@H](O)[C@H](O)[C@H]1O	1%
COC1=CC2C3Cc4ccc(OC)c(O)c4[C@]2(CCN3C)CC1=O (stereo partly drawn)	13%
O=[N+]([O-])c1ccc2nc(N3CCNCC3)ccc2c1	-7%&-9%
c1cc2c(cc1C1OC[C@@H]3C(c4ccc5c(c4)OCO5)OCC13)OCO2 (stereo partly drawn)	9%
CCNC(=O)[C@H]1O[C@@H](n2cnc3c(N)ncnc32)[C@H](O)[C@@H]1O	-6%&-13%&-2%
CCN1C[C@@]2(C)CC[C@@H](OC)[C@@]34C2C(O)[C@@]2(OCO[C@]25CC(OC)C2C[C@@]3(O)C5C2O)C14 (stereo partly drawn)	8%
C/C(=C\[C@@H](N)C(=O)O)CP(=O)(O)O	11%
COc1cc2c(cc1OC)[C@]13CCN4CC5=CCOC6CC(=O)N2[C@@H]1[C@@H]6C5C[C@@H]43 (stereo partly drawn)	-16%
OCCOc1ccccc1	6%&-10%
CN1CC[C@]23c4c5ccc(O)c4O[C@H]2[C@@H](O)CC[C@H]3[C@H]1C5	-1%
(continued)
SMILES	EPAC1 agonist
Oc1cc2c(cc1O)[C@H]1c3ccccc3CN[C@H]1CC2	-3%&9%
c1cnc(N2CCCC3(CCNCC3)C2)nc1	-52%[inhibitor]
CC(C)(O)[C@@H]1[C@H]2OC(=O)[C@@H]1[C@]1(O)C[C@H]3O[C@]34C(=O)O[C@H]2[C@]14C	-31%&-25%[inhibitor]
CNC(=O)O/N=C(/C)SC	7%
CC1O[C@@H](OC2CC(O)[C@@]3(CO)C4C(O)C[C@@]5(C)C(C6=CC(=O)OC6)CC[C@]5(O)C4CC[C@]3(O)C2)C(O)C(O)C1O (stereo partly drawn)	-18%
O=c1oc2ccccc2c(O)c1Cc1c(O)c2ccccc2oc1=O	6%&22%
O=C1CN=C(c2ccccc2)c2cc(Cl)ccc2N1CC1CC1	-16%
C[C@]12CCC3C(CC[C@H]4C[C@H](O)CC[C@]34C)[C@@H]1CC[C@@H]2C(=O)CO (stereo partly drawn)	-15%
CCON=O	5%
COC1=CC(=O)OC(/C=C/c2ccccc2)C1 (stereo not drawn)	-3%
COC(=O)COc1cc(Cl)c(Cl)cc1Cl	20%
C[C@H]1C(=O)O[C@@H]2CCN3CC=C(COC(=O)[C@](C)(O)[C@]1(C)O)[C@H]23	21%
CCC1(c2ccccc2)C(=O)NC(=O)N(C(=O)c2ccccc2)C1=O (stereo not drawn)	4%
CC(C)N(C(=O)CCl)c1ccccc1	u
O=[N+]([O-])/C=C/c1ccc2c(c1)OCO2	-5%
Cc1cccc(C)c1NC1=NCCCS1	u
C=CCN1C[C@H](C)N([C@@H](c2ccccc2)c2ccc(C(=O)N(CC)CC)cc2)C[C@H]1C	-7%
CC(=O)OCC1=C(C(=O)O)N2C(=O)[C@@H](N)[C@H]2SC1	-5%
C[C@]12CC[C@H]3[C@@H](CCC4=CC(=O)CC[C@@]43C)[C@@H]1CC[C@H]2O	17%
c1ccc(CCN2CCCCC2)cc1	12%
COc1ccn(C)c(=O)c1C#N	2%
COc1cc2c(cc1OC)[C@@H]1C(=O)c3ccc4c(c3OC1CO2)CC(C(C)C)O4 (stereo partly drawn)	u
C#C[C@]1(O)CC[C@H]2[C@@H]3CCC4=CC(=O)CC[C@]4(C)[C@H]3CC[C@@]21C	1%&21%
CCNC1(c2cccs2)CCCCC1=O (stereo not drawn)	9%
CC(=O)[C@H]1CCC2C3CC[C@H]4C[C@H](O)CC[C@]4(C)C3CC[C@@]21C (stereo partly drawn)	0%
Following part.
SMILES	EPAC1 agonist
CCC1CN2CCC1CC2C(O)c1ccnc2ccccc12 (stereo not drawn)	-11%
CN1CC[C@@]2(CCCN(C(=O)Oc3ccccc3)C2)C1	-56%[inhibitor]
CCN(Cc1ccc(Cl)nc1)/C(=C/[N+](=O)[O-])NC	-59%[inhibitor]
C=CCOC(Cn1ccnc1)c1ccc(Cl)cc1Cl (stereo not drawn)	-21%
N[C@H](CCP(=O)(O)O)C(=O)O	1%&-11%
CCC(Sc1ccccc1)C(=O)OC1CC2CCC(C1)N2C (stereo not drawn)	-10%
CCCCC[C@@H](/C=C/C=C\C/C=C\C/C=C\CCCC(=O)O)OO	-14%
Nc1ncn[nH]1	1%
Clc1ccc(COC(Cn2ccnc2)c2ccc(Cl)cc2Cl)cc1 (stereo not drawn)	u
CN1CCN(C(=O)O[C@@H]2c3nccnc3C(=O)N2c2ccc(Cl)cn2)CC1	-8%
COc1cc2c(cc1OC)-c1c(OC)c(OC)c(CO)c3c1C(C2)N(C)CC3 (stereo not drawn)	5%
CCc1cc(OC)c(C[C@@H](C)N)cc1OC	4%
C[C@@H](N)Cc1cnc[nH]1	-15%&-11%&-2%
O=C(CN1CCCCC1)c1ccccc1	5%
CNNC	u
ClC1=C(Cl)C2(Cl)C3C4C=CC(C4)C3C1(Cl)C2(Cl)Cl (stereo not drawn)	u
CC(=O)OO	-21%
CC(=O)OC1C2C(OC(=O)Cc3ccccc3)C(C)CC2(OC(C)=O)C(=O)/C(C)=C/C2C(CC[C@@]13CO3)C2(C)C (stereo partly drawn)	18%
C=CCN1C[C@@H](C)N([C@H](c2ccc(C(=O)N(CC)CC)cc2)c2cccc(OC)c2)C[C@@H]1C	-5%
Oc1ccc2c3c1O[C@H]1c4[nH]c5ccccc5c4C[C@@]4(O)C(C2)N(CC2CC2)CCC314 (stereo partly drawn)	-11%&-4%
CCCCN(CC)c1c([N+](=O)[O-])cc(C(F)(F)F)cc1[N+](=O)[O-]	u
O=C1CC[C@@]2(O)[C@H]3Cc4ccc(O)c5c4[C@@]2(CCN3CC2CC2)[C@@H]1O5	3%
NCc1cccnc1	-20%
COc1ccc(CNC(=O)/C=C\c2ccc3[nH]cc(CCN(C)C)c3c2)cc1	7%
CCOC(=O)c1ncn2c1[C@@H]1CCCN1C(=O)c1cc(OC)ccc1-2	-4%

Looked up one by one from above, four records:
SMILES	EPAC1 agonist
COc1cc2c(cc1OC)-c1c(OC)c(OC)c(CO)c3c1C(C2)N(C)CC3 (stereo not drawn)	5%
CC(=O)OO	-21%
CCC1CN2CCC1CC2C(O)c1ccnc2ccccc12 (stereo not drawn)	-11%
CNNC	u

Next part.
SMILES	EPAC1 agonist
Cc1nnc2n1-c1ccc(Cl)cc1C(c1ccccc1)=NC2	-10%
NCC(CP(=O)(O)O)c1ccc(Cl)cc1 (stereo not drawn)	9%&-20%
Oc1cc(Cl)c(Cl)cc1Cl	-42%[inhibitor]
OCCCBr	u
O=[N+]([O-])c1ccc(O)c([N+](=O)[O-])c1	-9%
CSc1nc(NC(C)C)nc(NC(C)C)n1	-11%
NC(CCCCCP(=O)(O)O)C(=O)O (stereo not drawn)	5%
O=C(Oc1ccccc1)N1CCC2(CCN(Cc3ccncc3)CC2)CC1	-25%
COC1C(O)C(OC2CC[C@]3(C=O)C4C(OC(C)=O)C[C@@]5(C)C(C6=CC(=O)OC6)CC[C@]5(O)C4CC[C@]3(O)C2)OC(C)C1OC(C)=O (stereo partly drawn)	-41%[inhibitor]
O=C1C=CC(=O)C=C1	-8%
COc1ccc(C(c2ccc(OC)cc2)C(Cl)(Cl)Cl)cc1	u
CS(=O)(=O)Nc1ccc(Cc2noc(-c3ccc4[nH]cc(CCN)c4c3)n2)cc1	-14%&8%
CC1Cc2ccccc2CN1 (stereo not drawn)	u
C[C@]12CC[C@H](O)C[C@H]1CC[C@@H]1[C@@H]2CC[C@]2(C)[C@@H](c3ccc(=O)oc3)C[C@H]3O[C@]132	-10%
CC[C@H]1C[C@@H]2C[C@H]3c4[nH]c5ccc(OC)cc5c4CCN(C2)[C@@H]13	15%
NCC1(CC(=O)O)CCCCC1	-5%&2%&0%
c1ccc(CCN2CCOCC2)cc1	11%
COc1ccc(NC(=O)N2CC[C@@]3(CCCN(C(=O)Oc4ccccc4)C3)C2)cc1	-57%[inhibitor]
CC(Cc1ccccc1)NCc1ccccc1Cl (stereo not drawn)	-11%
CN1CC[C@@]2(CCCN(C(=O)c3ccncc3)C2)C1	-27%
COc1cc2c(cc1OC)-c1c(O)c(OC)cc3c1[C@H](C2)N(C)CC3	-5%
CN1[C@@H]2CC[C@H]1CC(OC(c1ccc(F)cc1)c1ccc(F)cc1)C2 (stereo partly drawn)	3%
CC(C)CN1CCCC2(CCN(C(=O)Oc3ccccc3)CC2)C1	-25%
CC1=NCCc2c1[nH]c1cc(O)ccc21	79µM*
COc1ccc(C(=O)O[C@H]2CC[C@@]3(C)C4CCC5[C@]6(O)C[C@H](O)[C@@]7(O)C(CN8C[C@@H](C)CC[C@H]8[C@@]7(C)O)[C@]6(O)C[C@@]53O[C@@]42O)cc1OC (stereo partly drawn)	-9%&-18%
NC(=O)CN1CC(O)CC1=O (stereo not drawn)	-3%&-14%
Clc1ccc(CCC(Cn2ccnc2)Sc2c(Cl)cccc2Cl)cc1 (stereo not drawn)	20%
O=[N+]([O-])c1ccc([As](=O)(O)O)cc1	-4%
CC[C@H](C)[C@H](NC(=O)[C@H](CCCN=C(N)N)NC(=O)[C@H](CCCN=C(N)N)NC(=O)[C@H](CC(C)C)NC(=O)[C@H](Cc1ccccc1)NC(=O)CNC(=O)CNC(=O)[C@@H](N)Cc1ccc(O)cc1)C(=O)N[C@@H](CCCN=C(N)N)C(=O)N1CCC[C@H]1C(=O)N[C@@H](CCCCN)C(=O)N[C@@H](CC(C)C)C(=O)N[C@@H](CCCCN)C(=O)O	-13%
C=CCN1C[C@H](C)N([C@H](c2ccc(C(=O)N(CC)CC)cc2)c2cccc(O)c2)C[C@H]1C	4%

Another view of some results above:
SMILES,EPAC1 agonist
COC(=O)COc1cc(Cl)c(Cl)cc1Cl,20%
C[C@H]1C(=O)O[C@@H]2CCN3CC=C(COC(=O)[C@](C)(O)[C@]1(C)O)[C@H]23,21%

Structures above that contain sulfur, in the order listed:
SMILES	EPAC1 agonist
CCc1cc2c(s1)-n1c(C)nnc1CN=C2c1ccccc1Cl	20%
CNC(=O)O/N=C(/C)SC	7%
Cc1cccc(C)c1NC1=NCCCS1	u
CC(=O)OCC1=C(C(=O)O)N2C(=O)[C@@H](N)[C@H]2SC1	-5%
CCNC1(c2cccs2)CCCCC1=O (stereo not drawn)	9%
CCC(Sc1ccccc1)C(=O)OC1CC2CCC(C1)N2C (stereo not drawn)	-10%
CSc1nc(NC(C)C)nc(NC(C)C)n1	-11%
CS(=O)(=O)Nc1ccc(Cc2noc(-c3ccc4[nH]cc(CCN)c4c3)n2)cc1	-14%&8%
Clc1ccc(CCC(Cn2ccnc2)Sc2c(Cl)cccc2Cl)cc1 (stereo not drawn)	20%

From PubChem BioAssay

A portion of the library; rates above refer to the full screens.
